# miR-21 FLuc = raises the signal of a miR-21 reporter; HeLa miR-21 FLuc reporter, luciferase, 48 h; Potency, µM (series often up to 38.3 µM), for inactives: at the top dose reporter change, positive = more light; 340,000 tested, under 10 active; active = well fitted rising curve with a large enough effect; inconclusive = small, poorly fitted or top-dose-only effect; inactive = no such curve, though single readings can be large or run the other way;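 note: % of control where 0% means no effect; miR-21 action dims this reporter so a rising signal means less miR-21 action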
#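 HeLa miR-21-FLuc reporter line, endogenous miR-21; 2000 cells/well in DMEM/10% FBS; compound titration up to ~40uM final, 48 h, 37 degree Celsius; luciferase detection reagent, 15 min lysis, CCD luminescence.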
# * = called active by the depositor; ? = inconclusive; [ ] = dose if it differs, or a comment.
# Start of the listing, in advance, two compounds:
SMILES,miR-21 FLuc
CCOC(=O)c1cnc(NCc2ccc(OC)cc2OC)c2ccccc12,12.5%
CCOc1cc(C#N)c(-n2nnc3c(sc4nc(C)cc(C)c43)c2=O)cc1OCC,-4.6%

# This part in full, from the first entry:
SMILES,miR-21 FLuc
CCOC(=O)c1cnc(NCc2ccc(OC)cc2OC)c2ccccc12,12.5%
CCOc1cc(C#N)c(-n2nnc3c(sc4nc(C)cc(C)c43)c2=O)cc1OCC,-4.6%
Cc1oc2ccc(O)c(CN3CCN(C)CC3)c2c1C(=O)Nc1cccc(Cl)c1C,-6.8%
COc1cccc(CNC(=O)c2cc(-c3ccc(Cl)cc3)n[nH]2)c1,-4.9%
CCOC(=O)c1ccc(NC(=O)Cn2cc(S(=O)(=O)Cc3ccccc3F)c3ccccc32)cc1,-1.6%
CCCCN(CC)CCCNC(=O)c1nn(-c2ccc(OC)cc2)c(=O)c2c1c1ccccc1n2C,-20.5%
COc1ccc(CNC(=O)c2sc3nc4n(c(=O)c3c2C)CCCCC4)cc1,-8.4%
CCc1nnc2c(Nc3cc(OC)c(Cl)cc3OC)nc3ccccc3n12,-3.2%
O=C(CC1N=C2c3ccccc3N=C(SCc3ccccc3Cl)N2C1=O)NC1CCCCC1 (stereo not drawn),-3.6%
Cc1cccc(CC(=O)NCCc2sc3nc(-c4ccc(F)cc4)nn3c2C)c1,-8.5%
Cc1ccsc1CN(C(=O)c1oc2ccccc2c1C)C1CCS(=O)(=O)C1 (stereo not drawn),-0.8%
Cc1c(C)n(Cc2ccc(Cl)cc2)c2ccc(C(=O)N3CCN(c4ccccc4F)CC3)cc12,3.9%
CCSc1nc(-c2ccccc2OC)nc2c1Cc1c(CO)cnc(C)c1O2,-3.2%
COc1ccc([C@]23Cc4cc(OC)c(OC)cc4C(O2)C2=C(CCCC2=O)O3)cc1,-14.4%[7.66 µM]
CN(C(=O)CSc1nc2ccc(NC(=O)c3ccccc3)cc2s1)c1ccccc1,?
COc1ccccc1N1CCN(S(=O)(=O)c2c(C)nc3sc(C)c(C)n3c2=O)CC1,-0.4%
O=C(Nc1ccc(Cl)cc1F)c1oc(=O)c2ccccc2c1-c1ccccc1,11.1%
COc1cc2ccccc2cc1C(=O)Nc1sc2c(c1C(N)=O)CCN(C(C)C)C2,?
CCOc1ccccc1C1Nc2ccccc2-c2nnc(SCc3ccccc3)nc2O1 (stereo not drawn),-14.4%
Cc1ccc2c(c1)C(c1ccc(F)cc1)N(C(=O)c1cccc(C(F)(F)F)c1)CC(=O)N2 (stereo not drawn),?
COc1ccc2nc3sc(C(=O)Nc4cc(Cl)c(OC)cc4OC)cc3cc2c1,-3.6%
CC(C)c1ccc(OCC(O)CN2CCN(c3ccc(F)cc3)CC2)cc1 (stereo not drawn),6.9%
CCOc1cc(C(=O)Nc2ccc3oc(-c4ccc(F)cc4Cl)nc3c2)cc(OCC)c1OCC,-1.1%
O=c1c(N2CCc3ccccc3C2)csc2ccc(Cl)cc12,-13.3%
O=C(OCc1cc(=O)n2nc(C3CC3)sc2n1)c1ccc(F)cc1,-13.9%

# Five records picked at random from those above:
SMILES,miR-21 FLuc
COc1cccc(CNC(=O)c2cc(-c3ccc(Cl)cc3)n[nH]2)c1,-4.9%
O=C(CC1N=C2c3ccccc3N=C(SCc3ccccc3Cl)N2C1=O)NC1CCCCC1 (stereo not drawn),-3.6%
CCOc1cc(C#N)c(-n2nnc3c(sc4nc(C)cc(C)c43)c2=O)cc1OCC,-4.6%
CCOC(=O)c1ccc(NC(=O)Cn2cc(S(=O)(=O)Cc3ccccc3F)c3ccccc32)cc1,-1.6%
CN(C(=O)CSc1nc2ccc(NC(=O)c3ccccc3)cc2s1)c1ccccc1,?

# The results go on.
SMILES,miR-21 FLuc
Cc1nn2c(C(F)(F)F)cc(-c3ccc(OC(C)C)cc3)nc2c1C#N,0.4%
CCOc1ccc(NC(=O)Cn2c(CCC(=O)O)ccc2-c2ccc(Cl)cc2)cc1,-1.0%
O=C(Cn1c(=O)c2cccn2c2ccccc21)NCc1ccccc1F,-8.8%
CCCC(=O)Nc1nnc(S(=O)(=O)N(C)c2ccccc2)s1,-51.3%
CS(=O)(=O)N1CCc2cc(C(=O)NCc3ccccc3)ccc21,-7.8%
CCOC(=O)c1c(NC(=O)COc2ccc(Cl)cc2Cl)sc2c1CCCCC2,-0.2%
c1ccc(CSc2nc3ncccc3[nH]2)cc1,-47.2%
COc1ccc(-c2noc(-c3nnn(-c4cc(C)ccc4C)c3N)n2)cc1,-32.7%
Cc1ccc(Nc2nc(C)cc(C)n2)c(C(=O)O)c1,1.3%
CC(C)NC(=O)C1CCC(Cn2c(=O)c3sccc3n(CC(=O)Nc3ccccc3)c2=O)CC1 (stereo not drawn),-4.9%
CCn1c(=O)sc2cc(NS(=O)(=O)c3ccc(F)c(C)c3)ccc21,16.4%
Cc1ccc(-n2ncc3c(NC(C)c4ccccc4)ncnc32)cc1 (stereo not drawn),-46.6%
CCCCCN1C(C(=O)c2ccccc2)=C(NC(C)=O)c2ccccc2S1(=O)=O,20.3%
COc1ccc(Cn2c(CNC(=O)Cc3cccc([N+](=O)[O-])c3)nc3cccnc32)cc1,-4.3%
CC(=O)N1CCc2cc(S(=O)(=O)NC(Cc3ccccc3)C(=O)Nc3ccc(Cl)cc3)ccc21 (stereo not drawn),-11.2%
COc1ccc(CNC(=O)CCCCCn2c(=O)[nH]c3ccccc3c2=O)cc1,8.8%
CCc1ccc(NC(=O)Cn2c(=O)nc(-c3ccccc3F)c3cc(Cl)ccc32)cc1,23.6%
CC(C)c1ccc(N(CC(=O)O)S(=O)(=O)c2ccc3[nH]c(=O)c(=O)[nH]c3c2)cc1,-1.9%
CCOc1ccc(C(=O)NCc2ccc3c(c2)CCN3C(=O)c2ccccc2)cc1,8.0%
CCN(C(=O)Cn1c(C(=O)OC)cc2oc3ccccc3c21)c1cccc(C)c1,24.6%
CC(C)c1cnc2c(c1SCC(=O)O)c(=O)n(C)c(=O)n2C,8.9%
CCc1ccc(C2C(C(=O)Nc3ccccc3C)=C(C)Nc3nc(SCc4cccc(OC)c4)nn32)cc1 (stereo not drawn),-3.8%
COc1ccc(NC(=O)CSc2nc3ccccc3[nH]2)cc1,-15.9%
Cc1ccc(Sc2c(C(=O)NCc3ccccc3C)[nH]c3ccccc23)cc1,-14.3%
Cc1cc(C)n(C(C)CC(=O)NCc2ccc(N(C)C)cc2)n1 (stereo not drawn),29.6%

# Further records follow:
SMILES,miR-21 FLuc
Cc1ccsc1CCN1C(=O)N(c2ccc(F)cc2)C(=O)C1CC(=O)Nc1ccccc1 (stereo not drawn),10.4%
Cc1ccc(C(=O)NCCn2c(C)cc3ccccc32)cc1C,13.0%
Cc1nnc2c3ccccc3nc(Nc3ccccc3C(=O)O)n12,-6.2%
COc1cc(NC(=O)c2cc(-c3ccc(Cl)c(Cl)c3)on2)cc(OC)c1OC,-10.0%
COc1ccc(Cl)cc1CNCCSc1nnnn1-c1ccccc1,-7.6%
CC(=O)c1c(C)oc2ccc(N(C(=O)Oc3ccccc3)S(=O)(=O)c3ccc(Br)cc3)cc12,1.6%
O=C(c1cc2c(s1)-c1ccccc1OC2)N1CCN(c2ccc(F)cc2)CC1,-2.7%
CCCn1cc(S(=O)(=O)c2cccc(Cl)c2)c(=O)c2cc(F)c(N3CCOCC3)cc21,-5.1%
Cc1ccc(NC(=O)C2CCCN(S(=O)(=O)c3c(C)n[nH]c3C)C2)cc1C (stereo not drawn),1.0%
O=C(O)c1ccc(Nc2nc(-c3ccccc3)c3cc(Br)ccc3n2)cc1,-0.1%
Cc1cccc(C(=O)Nc2c(C(=O)N3CCN(c4ccc(F)cc4)CC3)oc3ccccc23)c1,4.0%
COc1cc(CN(C(=O)COc2ccccc2Cl)c2ccccn2)cc(OC)c1OC,-7.1%
COc1ccc(Cn2c(C(=O)O)c(CNCCc3ccccc3Cl)c3ccc(C)cc32)cc1,?
CCC(=O)N1CCc2cc(Br)cc(S(=O)(=O)CCC(=O)Nc3cccc(C)c3C)c21,5.1%
COc1ccc2[nH]c3c(c2c1)CCN(C(=O)c1cccc(Cl)c1)C3c1ccc(F)cc1 (stereo not drawn),20.9%
Oc1c(Cl)cc(CN2CCCCC2)c2cccnc12,?
COc1ccc(S(=O)(=O)c2cn(C)c3ccc(C)cc3c2=O)cc1,-2.9%
CCc1cccc(C)c1NC(=O)CN1C(=O)c2cccc3cccc1c23,-12.4%
COc1cccc(C2NC(=O)c3n[nH]c(-c4cccs4)c32)c1 (stereo not drawn),-15.2%
COC(=O)c1ccc(OCC2c3cc(OC)c(OC)cc3CCN2C(=O)C(C)C)cc1 (stereo not drawn),-6.6%
CCOc1ccc(CCNC(=O)c2cc3c(=O)n(CC)c4ccccc4c3s2)cc1OCC,4.2%
Cc1ccc2nc(Cl)c3cc(C(=O)NCCCN4CCC(C)CC4)sc3c2c1,0.8%
COc1ccc(-c2nc3cc(NC(=O)Cc4ccc(Cl)cc4)ccc3o2)cc1OC,10.6%
COc1cc(NC(=O)Cn2cc(S(=O)(=O)N3CCC(C)CC3)c3ccccc3c2=O)cc(OC)c1OC,-6.2%
CCOc1ccc(C(=O)Nc2c(C)nc(Nc3ccccc3)nc2Nc2ccccc2)cc1OCC,20.3%

# Next results follow.
SMILES,miR-21 FLuc
Cc1ccccc1NC(=O)COc1ccc2oc3c(c2c1)CCCC3,-5.8%
Cc1oc(-c2ccc(C(=O)N(C)Cc3ccccc3)cc2)nc1CN1CCc2ccccc21,?
CCC(=O)N1c2ccccc2CC1C(=O)NCc1ccc(CC)cc1 (stereo not drawn),-6.6%
CCOC(=O)c1cc(S(=O)(=O)N2CCN(c3cccc(C)c3C)CC2)[nH]n1,12.7%
Cn1nc(-c2ccc(OCC(=O)Nc3cccc(C(F)(F)F)c3)cc2)c2ccccc2c1=O,13.1%
COc1ccc(C)cc1NC(=O)Cc1ccc(NC(=O)N2CCCCc3ccccc32)cc1,-1.0%
Cc1ccccc1CNC(=O)c1nn(-c2ccccc2F)nc1CO,13.8%
CCS(=O)(=O)c1cccc(C(=O)Nc2ccc(-c3nc4ccccc4s3)c(O)c2)c1,-13.1%
CCOC(=O)c1cc(-c2ccc(C)cc2)n(CC(=O)Nc2ccccc2F)c1C,-1.5%
Cc1cnc2c(c1SCC(=O)Nc1ccc(F)cc1F)c(=O)n(C)c(=O)n2C,10.2%
Cc1nnc(N2CCC(C(=O)NCc3cccc(Cl)c3)CC2)c2nn(-c3ccccc3)c(C)c12,9.3%
COc1cc(NC(=O)Cn2cc(C(=O)c3ccc(F)cc3)c(=O)c3ccc(C)nc32)cc(OC)c1,-3.7%
Cc1ccc(NC(=O)Cn2c(=O)n(Cc3nc(-c4ccccc4)no3)c(=O)c3cc4c(cc32)OCO4)c(C)c1,0.2%
CCc1ccc(NC(=O)CN(c2ccc(Cl)cc2)S(=O)(=O)c2ccsc2C(=O)OC)cc1,?
Cc1cccc(OCc2cc(=O)n3c(-c4ccccc4)csc3n2)c1C,-32.6%
CCOC(=O)COc1ccc(C)cc1C(=O)c1ccn2nc(-c3ccc(F)cc3)cc2n1,-5.6%
Cc1ccc(NC(=O)CC2Oc3ccccc3NC2=O)cc1C (stereo not drawn),-21.7%
Cc1ccc(CNC(=O)c2cnc(N3CCCCC3)c3ccccc23)cc1,0.3%
CCOC(=O)c1ccc(NC(=O)c2c(NCc3cc(OC)c(OC)cc3OC)sc3c2CCCC3)cc1,4.9%
CCCCc1ccc(NC(=O)CSc2nnc3[nH]c(=O)cc(C)n23)cc1,-12.8%
Cc1cccc(N2CCN(CCCNc3ncnc4onc(-c5ccc(Cl)cc5)c34)CC2C)c1 (stereo not drawn),-5.9%
CCc1ccc(NC(=O)c2cc3sc(Cl)cc3n2C)cc1,-32.6%
Cc1ccc(S(=O)(=O)c2nc(-c3ccccc3F)oc2N2CCCCC2)cc1,-14.6%
Cc1ccc(-n2c(SCC(=O)c3ccccc3)nc3c([nH]c4ccccc43)c2=O)cc1,-3.8%
CCCCN(c1ccccc1)c1ncnc2c1cnn2-c1cccc(C)c1,-27.0%

# Exported with the structure last: part of the list above
miR-21 FLuc | canonical_smiles
24.6% | CCN(C(=O)Cn1c(C(=O)OC)cc2oc3ccccc3c21)c1cccc(C)c1
8.9% | CC(C)c1cnc2c(c1SCC(=O)O)c(=O)n(C)c(=O)n2C
-3.8% | CCc1ccc(C2C(C(=O)Nc3ccccc3C)=C(C)Nc3nc(SCc4cccc(OC)c4)nn32)cc1 (stereo not drawn)

# Other structures.
SMILES,miR-21 FLuc
COc1ccc(CCNC(=O)CCn2c(=O)c3ccccc3n(CC(=O)Nc3cc(Cl)ccc3C)c2=O)cc1OC,-3.6%
CCc1ccc(OCC(=O)Nc2ccc(S(=O)(=O)Nc3onc(C)c3C)cc2)cc1,-1.6%
Cc1ccc(OCC(=O)Nc2ccc(Cl)c(-c3nc4ccccc4[nH]3)c2)cc1C,19.0%
CCN1CCN(c2nnc(-n3cccc3C(=O)NCc3ccccc3OC)s2)CC1,-9.3%
CC1CCN(S(=O)(=O)c2ccc3c(ccn3CCC(=O)NCc3ccc(N(C)C)cc3)c2)CC1,16.2%
CCc1ccc(NC(=O)Cn2cnc3sc(C)c(S(=O)(=O)N4CCN(c5ccccc5OC)CC4)c3c2=O)cc1,16.7%
COc1cccc(NC(=O)CC2C(=O)OCCN2Cc2ccccc2)c1 (stereo not drawn),-6.1%
O=C1C(Nc2ccccc2)=CC(c2ccc(Br)cc2)N1c1ccccc1 (stereo not drawn),-10.4%
CCCC12CN3CC(C)(CN(C1)C3c1ccccc1Cl)C2=O (stereo not drawn),2.8%
COc1ccc(NC(=O)CSc2nnc(-c3ccc(OC)cc3)s2)cc1,-32.9%
O=C(Nc1ccccc1C(F)(F)F)N1Cc2ccccc2Oc2ncccc21,-8.9%
COc1ccccc1NC(=O)Cn1c(=O)n(Cc2ccco2)c(=O)c2oc3ccccc3c21,-1.3%
Cc1ccc(NC(=O)CN2C(=O)C(c3ccc(C(C)(C)C)cc3)=NC2(C)C)cc1,2.3%
COc1cc2nc(SCc3cccc(Cl)c3)n3nc(CCn4nc(C)cc4C)nc3c2cc1OC,-9.4%
COc1ccc(OC)c(NC(=O)CSc2n[nH]c(-c3ccccc3Cl)n2)c1,2.1%

# Compound activity (PubChem BioAssay)

# The list is partial. The share of hits here may be higher or lower than overall.
